RE007 growth inh: less growth of the S. pombe RE007 Vpr strain; Potency, µM (doses to about 92.2 µM), for inactives: top-dose activity change, negative = less growth; 360,000 compounds, 0.21% hits; S. pombe RE007 Vpr strain, BacTiter-Glo ATP luminescence, 24 h; control for the full effect not named in the record; active = well fitted falling curve with a large enough effect; inconclusive = small, poorly fitted or top-dose-only effect; inactive = no such curve, though single readings can be large or run the other way;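 also: nearly all actives have a fitted effect of over 50% in size; the assay follows cell death caused by Vpr and the record does not say whether a fall means rescue or toxicity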
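Fission yeast RE007 carrying one integrated HIV-1 vpr copy, seeded at OD 0.01 in PMG+AL medium with 23 nL pinned compound. Grown 24 h at 30 degrees; viability read by BacTiter-Glo luminescence after 5 min.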
StopGo reporter: FMDV 2A StopGo reporter, luciferase signal. Potency, µM (series often up to 57.9 µM), for the others: at the top dose signal change, negative = less light. human cells with a luciferase reporter of 2A StopGo recoding; control for the full effect not named in the record. 410,000 compounds, 1.2% hits; active = well fitted falling curve with a large enough effect; inconclusive = small, poorly fitted or top-dose-only effect; inactive = no such curve, though single readings can be large or run the other way; tested in HEK293T cells; also: nearly all actives have a fitted effect of over 45% in size; luciferase light after 4 h
* hit, by the source's call; ? = inconclusive; [ ] = remark or other dose. % is scaled to controls: 0 for no effect and ±100 for the full control effect; potency is read from the fitted curve at half-maximal effect. Not all compounds are listed; rates above refer to the full screens.

SMILES	RE007 growth inh	StopGo reporter
COc1ccc(NC(=O)N(C)[C@H]2C[C@H]3c4[nH]c5ccccc5c4CCN3C[C@H]2[C@H](C)O)cc1	1%	-16%
O=C(C[C@@H]1C[C@H]2c3cc(NC(=O)C4CCC4)ccc3O[C@H]2[C@@H](CO)O1)NCc1ccc(-c2ccccc2)cc1	-26%	-26%
COc1ccc(C(=O)C[C@@H]2OC[C@H](C)N2S(=O)(=O)c2ccc(C)cc2)cc1OC	5%	-21%
CCC(=O)N1CCC1(C)C(=O)Nc1ccc(OC(F)F)cc1 (configuration not stated)	2%[18.4 µM]	-10%
N#Cc1cccnc1N1CCN(C(=O)c2ccc3c(c2)S(=O)(=O)c2ccccc2C3=O)CC1	16%	-16%
COc1ccc(NC(=O)C2C(c3ccc4c(c3)OCO4)=Nc3ccccc3N2C(C)=O)cc1 (configuration not stated)	-8%	29%
Cc1cc(C)n(-c2nc3c(c(=O)n(C)c(=O)n3C)n2Cc2cccc(Br)c2)n1	7%	9%
c1ccc2ncc(-n3ccnc3)cc2c1	8%	-6%
CC(C)Sc1nc(-c2cccs2)nc2cc(Cl)ccc12	-3%	-21%
CCC(C)C(CO)NCCCn1cnc(C(=O)Nc2ccc(C)c(C)c2)n1 (configuration not stated)	-15%	0%
COC(=O)[C@]12CCCCC=C1N(CCc1ccc(OC)c(OC)c1)C(=O)[C@H](CC(=O)NCCCCc1ccccc1)C2	6%	-20%
Cc1cccc(CN2CCN(C3CN(Cc4ccccc4)S(=O)(=O)C3)CC2)c1 (configuration not stated)	-13%	-19%
CC1(C(=O)NS(=O)(=O)C2CC2)CCCN(C(=O)c2ccc3ccccc3c2)C1 (configuration not stated)	6%	1%
COc1ccc(NC(=S)N2CCC(C(=O)c3ccc(F)cc3)CC2)cc1	14%	24%
COc1ccc(F)cc1-c1cc(NC=O)c2ncc(-c3cc(OC)c(OC)c(OC)c3)n2c1	12%	32µM*
CCOC(=O)C1=CCN(S(=O)(=O)c2ccccc2C)C1c1ccc(Cl)cc1 (configuration not stated)	-20%	0%
COC(=O)[C@@]12C[C@@H](CC(=O)N3CCCC3)C(=O)N(Cc3ccco3)C1=CCC(C)(C)C2	10%	-8%
O=C(CSc1ccccc1F)NC(=O)NC1CCCC1	3%	65%[activator]
C[C@H](CO)N1C[C@H](C)[C@@H](CN(C)Cc2ccc(C(=O)O)cc2)Oc2ncc(-c3ccc(C(=O)N(C)C)cc3)cc2C1=O	0%	-14%
CC(C)[C@@H]1Cc2[nH][nH]c(=O)c2[C@H](C)O1	11%	-12%
CCCCCNC(=O)C(c1cc2ccccc2o1)n1c(=O)c(-c2cc3ccccc3[nH]2)nc2ccccc21 (configuration not stated)	-9%	3%
C=CCOC(=O)N1CCC2CC1c1cc(-c3ccc(OC)cc3)ccc12 (configuration not stated)	6%	?
CC(C)n1nnnc1C1c2ccccc2C(=O)N1Cc1cccnc1 (configuration not stated)	-3%	-19%
COc1ccc(C(=O)C[C@@H]2OC[C@H](C(C)C)N2S(=O)(=O)c2ccc(C)cc2)cc1OC	-7%	-3%
COc1cccc(-c2cnc(C(O)c3ccc(Cl)cc3)[nH]2)c1 (configuration not stated)	-8%	32%[activator]
O=C(Nc1ccc(F)cc1)C(c1ccccc1)N1CCN(c2ccncc2)CC1 (configuration not stated)	?	-2%
CSc1ncnc2c1ncn2CCCNCC(c1ccccc1)c1ccccc1	-26%	-15%
COc1ccc(NC(=O)c2cc(-c3cc(Cl)ccc3C)n[nH]2)cc1OC	6%	-15%
C[C@@H]1CN([C@@H](C)CO)C(=O)CCCn2nncc2CO[C@@H]1CN(C)C(=O)Nc1ccccc1F	3%	0%
COc1ccc(OCCN2CCC(C(=O)NC(c3ccsc3)c3ccccc3C)CC2)cc1 (configuration not stated)	0%	-29%
CCCS(=O)(=O)NC(=O)C1(C)CCCN(C(=O)c2cccc(OC(F)(F)F)c2)C1 (configuration not stated)	-13%[18.4 µM]	-13%
C[C@@H]1CN([C@H](C)CO)C(=O)CCCn2nncc2CO[C@@H]1CN(C)S(=O)(=O)c1ccc(F)cc1	15%	2%
C[C@H](O)[C@@H]1C(=O)N2CCc3ccc(N4CCOCC4)cc3[C@@H]2C[C@@H]1N(C)C(=O)Nc1ccccc1	-3%	?
COc1ccc(-c2cc3nc(-c4ccccc4)cc(N4CCN(C(=O)c5ccsc5)CC4)n3n2)cc1	4%	?
COc1cc(Cc2cc(OC)c(O)c(OC)c2)cc(OC)c1O	7%	-2%
C[C@@H]1CN([C@@H](C)CO)C(=O)c2c(c3ccccc3n2C)-c2ccccc2CO[C@H]1CN(C)C(=O)[C@H](C)c1ccccc1	-13%	?
CC(C)=CCc1c(O)cc(O)c2c(=O)c(O[C@@H]3O[C@@H](C)[C@H](O)[C@@H](O)[C@H]3O)c(-c3ccc(O)cc3)oc12	2%	-27%
CCOC(=O)N(C)c1c(CC)nc2c(OCc3ccc(Cl)cc3Cl)cccn12	9%	-32%
COc1ccc(NC(=O)CCCNC(=O)c2ccc(Cl)cc2)cc1S(=O)(=O)N1CCOCC1	-2%	-1%
CCOc1ccc(CCN2C(=S)N([C@@H](CC(C)C)CN3CCC[C@@H]3CN3C(=S)NC[C@@H]3Cc3ccccc3)C[C@@H]2Cc2ccc(O)cc2)cc1	3%	-20%
COc1ccc(-c2coc3cc(OC)ccc3c2=O)cc1	6%	21%
CC1=C(CC[C@@H](C)CO)OC2CC3C4CCC5CC(O)CCC5(C)C4CC(=O)C3(C)C12 (some centres not stated)	-6%	?
COc1ccc(-c2ccc(CN3C(C)C(=O)N(Cc4cn(Cc5ccco5)nn4)CCS3(=O)=O)cc2)cc1 (configuration not stated)	4%	-20%
O=C(Nc1ccccc1)c1cc(C2CCCCN2S(=O)(=O)c2ccc(F)cc2F)on1 (configuration not stated)	2%	-27%
CC(C)OC(=O)N(C)C[C@@H]1OCc2cn(nn2)CCCC(=O)N([C@@H](C)CO)C[C@H]1C	24%	-13%
C#CCOCCOCCOCCNc1nc(N2CCN(C(=O)Cn3cc(CCO)nn3)CC2)nc(N2CCN(C(=O)[C@H](Cc3ccc(O)cc3)n3cc(CCO)nn3)CC2)n1	2%	-24%
CCN(C(=O)COC(=O)c1cc2c(s1)CCC(C)C2)c1c(N)n(Cc2ccccc2)c(=O)[nH]c1=O (configuration not stated)	-5%	-16%
Cc1ccc(OCc2nnn(CC(=O)NS(=O)(=O)c3c(C)noc3C)c2-c2ccccc2)cc1	11%	-11%
NC(=O)C1CCN(C(=O)c2ccc(Cl)c(NC(=O)c3cccs3)c2)CC1	7%	15%
Cc1cc(C)c(SSc2nnnn2-c2ccccc2)c(C)c1	13%	-16%
CCCS(=O)(=O)NC(=O)C1(C)CCCN(C(=O)c2ccccc2F)C1 (configuration not stated)	5%	-10%
CC(C)C[C@@H](CNCC(=O)[C@H](CC(C)C)NC(=O)c1[nH]cnc1C(=O)N[C@@H](C)CN)NC(=O)c1nc[nH]c1C(=O)N[C@@H](CC(=O)O)C(=O)O	10%	-8%
CCCC(=O)N1CCCC1(C)C(=O)Nc1cc(C)ccc1C (configuration not stated)	-4%	-11%
OCC[C@H]1C[C@@H](O)[C@H](O)[C@@]2(CCCO2)O1	1%	-4%
CC1Sc2ccc(C(=O)N(CCc3ccccc3)Cc3ccccc3)cc2NC1=O (configuration not stated)	-12%	-16%
Cc1cc(F)ccc1C(O)c1ncc(-c2cccc(F)c2)[nH]1 (configuration not stated)	-15%	47%[activator]
COC(=O)c1c(C(=O)OC)c2c(-c3ccccc3)cc3cccc1n32	-19%	?
COc1ccc(C(=O)OCc2ccccc2C#N)cc1S(=O)(=O)N1CCOCC1	12%	13%
COc1ccc(CNc2nccn3ccnc23)cc1	-4%	34%[activator]
O[C@H]1CN(CC2CCCCC2)[C@@H](c2ccccc2)C[C@@H]1n1cc(C2CC2)nn1	-8%	-23%

Other entries follow:
SMILES	RE007 growth inh	StopGo reporter
COc1cccc(OC)c1-c1cnc(NC(C)=O)cn1	15%	3%
COc1ccc(-c2csc(C(C)(O)c3cccc(F)c3)n2)cc1 (configuration not stated)	?	-27%
CCCCCCCCN1C(=O)[C@H](CC(=O)N2CCN(C(=O)OCC)CC2)C[C@@]2(C(=O)OC)CCCCC=C12	2%	-17%
C[C@H]1CN([C@@H](C)CO)C(=O)CCCn2cc(nn2)CO[C@@H]1CN(C)C(=O)Nc1ccc(-c2cccs2)cc1	2%	-7%
COC(=O)C[C@H]1CC[C@H](NC(=O)c2cccc(F)c2)[C@@H](CO)O1	0%	-14%
O=C(NCC(=O)N1CCN(Cc2ccccc2)CC1)c1ccccc1Cl	10%	-15%
COC(=O)c1ccc2nc(-c3ccccc3)c(Cc3ccc(OC)cc3C)n2c1	-17%	11%
CCOc1ccc(OCCC(=O)OCC(=O)c2c(N)n(CC(C)C)c(=O)n(C)c2=O)cc1	3%	?
CCCC(C)(C)C(=O)N1CCC1(C)C(=O)NS(=O)(=O)c1ccc(Cl)cc1 (configuration not stated)	36%	1%
Cc1ccc(Cl)cc1-c1cc(C(=O)N2CCN(c3ccncc3)CC2)[nH]n1	-22%	-21%
Cc1ccccc1-c1cc2nc(OCC3CCCO3)n(C)c(=O)c2s1 (configuration not stated)	2%	-11%
COc1cccc(C#Cc2ccc3c(c2)O[C@H](CN(C)S(=O)(=O)c2ccccc2F)[C@H](C)CN([C@H](C)CO)S3(=O)=O)c1	-9%	16%
Cc1cc(Br)cn2c(Cc3ccsc3)c(-c3ccco3)nc12	-9%	35µM*
COC(=O)C1=CN(c2ccc(OC)cc2OC)C(N)=C(C#N)C1c1ccc(OC)cc1 (configuration not stated)	0%	-13%
COC(=O)C1=C(C(=O)OC)[C@@H]2Nc3ccccc3[C@@]23C[C@@H](C(=O)OC)N(C(=O)NC2CCCCC2)C3=N1	-1%	2%
COc1cc(NC(=O)C2=C(C)OCCS2)c(Cl)cc1C(=O)NCCCN1CCCC(C)C1 (configuration not stated)	-14%	-11%
O=C(CC(NC(=O)OCc1ccccc1)c1nn[nH]n1)OCc1ccccc1 (configuration not stated)	-22%	11%
CCc1nc2ccc(C(=O)NCc3ccccc3OC)cn2c1N(C)Cc1ccc(N(C)C)cc1	?	0%
Brc1ccc(-c2noc3c2-c2nc(-c4ccccc4)sc2CC3)cc1	14%	-13%
CCc1nc2c(OCCn3cccc3)cccn2c1N(C)C(=O)c1ccco1	-14%[18.4 µM]	-6%

15 entries from above, arranged by heavy-atom count, highest first.
SMILES	RE007 growth inh	StopGo reporter
COC(=O)C1=C(C(=O)OC)[C@@H]2Nc3ccccc3[C@@]23C[C@@H](C(=O)OC)N(C(=O)NC2CCCCC2)C3=N1	-1%	2%
COc1ccc(-c2cc3nc(-c4ccccc4)cc(N4CCN(C(=O)c5ccsc5)CC4)n3n2)cc1	4%	?
C[C@@H]1CN([C@@H](C)CO)C(=O)CCCn2nncc2CO[C@@H]1CN(C)C(=O)Nc1ccccc1F	3%	0%
COc1ccc(NC(=O)C2C(c3ccc4c(c3)OCO4)=Nc3ccccc3N2C(C)=O)cc1 (configuration not stated)	-8%	29%
CCOc1ccc(OCCC(=O)OCC(=O)c2c(N)n(CC(C)C)c(=O)n(C)c2=O)cc1	3%	?
CC1Sc2ccc(C(=O)N(CCc3ccccc3)Cc3ccccc3)cc2NC1=O (configuration not stated)	-12%	-16%
CCCS(=O)(=O)NC(=O)C1(C)CCCN(C(=O)c2cccc(OC(F)(F)F)c2)C1 (configuration not stated)	-13%[18.4 µM]	-13%
O=C(CC(NC(=O)OCc1ccccc1)c1nn[nH]n1)OCc1ccccc1 (configuration not stated)	-22%	11%
Cc1ccc(Cl)cc1-c1cc(C(=O)N2CCN(c3ccncc3)CC2)[nH]n1	-22%	-21%
NC(=O)C1CCN(C(=O)c2ccc(Cl)c(NC(=O)c3cccs3)c2)CC1	7%	15%
COC(=O)c1c(C(=O)OC)c2c(-c3ccccc3)cc3cccc1n32	-19%	?
COc1cc(Cc2cc(OC)c(O)c(OC)c2)cc(OC)c1O	7%	-2%
CCCC(=O)N1CCCC1(C)C(=O)Nc1cc(C)ccc1C (configuration not stated)	-4%	-11%
O=C(CSc1ccccc1F)NC(=O)NC1CCCC1	3%	65%[activator]
CC(C)[C@@H]1Cc2[nH][nH]c(=O)c2[C@H](C)O1	11%	-12%

Carrying on.
SMILES	RE007 growth inh	StopGo reporter
C[C@H](O)CNC(=O)c1[nH]cnc1C(=O)Nc1cccc(Cl)c1	3%	0%
CC(C)c1cc(Cn2c3ccccc3c(=O)n2C(C)Cn2cc(C3CC3)nn2)on1 (configuration not stated)	0%	-6%
CCN(CC)C(=O)C1=C(C)N(CCC2=CCCCC2)C(=O)C(CC(=O)NCCN2CCOCC2)C1 (configuration not stated)	-12%	-17%
CN1OC[C@@H]2CN(C(=S)NCCc3ccccc3)[C@H](c3ccc(N4CCCCC4)cc3)C[C@@H]21	-10%	-3%
COC(=O)c1ccc(Cn2c(C)c(C(=O)NCc3ccc(Cl)c(Cl)c3)sc2=O)o1	-6%[18.4 µM]	?
CN(C(=O)CS(=O)(=O)c1cn(CC(=O)N2CCCC2)c2ccccc12)c1ccccc1	2%	-9%
CC1(C)OC(=O)C2=C(C[C@@H](CCC(F)(F)F)O[C@H]2c2ccc(F)cc2)O1	5%	-24%
COc1cccc(CNC(=O)[C@@H]2CCCN2C(=O)[C@H]2CCCCN2C(=O)c2ccc(Cl)cc2)c1	19%	-9%

Screens from PubChem.
